Assay outcomes: PubChem BioAssay, Broad Institute
RanGTP-Impb inh: inhibitors of RanGTP-importin-beta interaction, primary screen, biochemical, FRET, CFP-Ran, YFP-importin-beta, homogeneous. actives 1.1% (n = 300,000). cell-free CFP-Ran/YFP-importin-beta FRET ratio. inhibition, % (no concentration beside the values);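 active means most replicates above 15%; inconclusive means exactly half above 15%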;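 further: 0% = DMSO wells and 100% = Ran loaded with GDP instead of GTP; wells of about 40 µL received 100 nL stock; the first replicate is given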
rRNA inh HTS: inhibits bacterial ribosomal RNA function over humanized ribosomes; E. coli WT GFP vs humanized-ribosome RFP mutants, fluorescence, 24 h; stronger effect = lower value; DMSO median 0, no signal -100; GFP signal change (wild-type ribosome), % (concentration not given with the values); actives 1.6% (n = 350,000); AID 720706;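 active means significant combined selectivity score with lowered wild-type GFP, culture density cut under 30%, mutant RFP and density less affected; inactive means any of these conditions unmet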; further: one replicate is shown; some compounds called inactive have numbers as strong as hits
Calb FLC: affects C. albicans growth with fluconazole. C. albicans CaCi-2 (fluconazole-resistant clinical isolate) + fluconazole, Alamar Blue growth, 48 h. growth inhibition, % (no concentration beside the values). actives 0.57% (n = 300,000);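 active means most replicates above 75%; inconclusive means exactly half above 75%; inactive means most below 75%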;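 further: all wells also contain fluconazole at 8 µg/ml as a sub-toxic cotreatment; 0% = median of DMSO wells and 100% = median of geldanamycin control wells; wells of about 8 µL received 7.5 nL stock; the first replicate is given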
MLL AF4-AF9 inh: MLL-AF4/AF9 protein interaction inhibition. AlphaScreen, biotin-AF4 peptide binding to FLAG-AF9. inhibition, % at 10 µM. actives 0.47% (n = 350,000). AID 651704;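 active means every replicate reaching a set inhibition limit, whatever the replicate mean, cut at about 25% in these data; inconclusive means mean inhibition reaches that limit but some replicates miss it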;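 further: 0% = plate neutral control median and 100% = total signal loss; the record names both 10 and 1 µM as test concentration; the first replicate is given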
Target sequence (P42568 whole entry, looked up): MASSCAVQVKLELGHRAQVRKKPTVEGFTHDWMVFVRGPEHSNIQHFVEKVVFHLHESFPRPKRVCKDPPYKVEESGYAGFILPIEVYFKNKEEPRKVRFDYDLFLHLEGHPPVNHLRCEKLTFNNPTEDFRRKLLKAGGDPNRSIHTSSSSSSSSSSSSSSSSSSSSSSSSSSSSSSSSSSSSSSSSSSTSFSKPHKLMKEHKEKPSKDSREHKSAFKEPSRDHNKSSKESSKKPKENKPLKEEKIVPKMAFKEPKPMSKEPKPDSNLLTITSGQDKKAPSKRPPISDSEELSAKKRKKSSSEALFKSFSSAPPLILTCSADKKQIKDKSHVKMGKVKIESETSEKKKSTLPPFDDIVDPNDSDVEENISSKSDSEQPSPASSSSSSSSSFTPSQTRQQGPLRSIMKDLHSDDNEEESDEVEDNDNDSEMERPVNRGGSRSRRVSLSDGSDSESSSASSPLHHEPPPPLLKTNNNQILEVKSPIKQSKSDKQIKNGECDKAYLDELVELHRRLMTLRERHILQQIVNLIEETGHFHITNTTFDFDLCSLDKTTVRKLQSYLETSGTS
T cruzi repl: T. cruzi replication inhibition. T. cruzi beta-gal in NIH3T3, luminescence, 90 h. actives 1.4% (n = 300,000). inhibition, % (no concentration beside the values);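 active means mean inhibition across valid replicates above about 55%, limit read from the data; inconclusive means mean below that limit but half or more replicates reach it; inactive means mean below it, under half of replicates reach it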;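 further: signal also drops with host cell toxicity which is not excluded here; 0% = plate median of DMSO wells and 100% = zero luminescence signal; higher percent means less beta-gal luminescence so fewer parasites; stock transfer was 50 nL into about 50 µL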
ALR inh: blocks human ALR sulfhydryl oxidase activity | P55789 | purified ALR, DTT oxidation, H2O2 HRP-luminol luminescence | inhibition, % (no concentration beside the values) | actives 3.8% (n = 290,000) | AID 485317;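 active means mean and each replicate at 75% or more; inconclusive means only one of the two met; inactive means neither met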;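 further: stock transfer was 7.5 nL into about 7.5 µL; 0% = neutral wells and 100% = wells with inactivated enzyme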
Target sequence (P55789 whole entry, looked up): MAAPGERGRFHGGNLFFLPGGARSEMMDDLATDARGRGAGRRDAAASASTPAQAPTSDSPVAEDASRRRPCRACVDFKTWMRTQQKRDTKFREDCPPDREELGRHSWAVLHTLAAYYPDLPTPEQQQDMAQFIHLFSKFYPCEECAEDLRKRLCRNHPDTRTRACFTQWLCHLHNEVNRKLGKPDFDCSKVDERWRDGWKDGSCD
FGF22 binding: shifts melting point of recombinant human FGF22. recombinant FGF22 thermal shift, SYPRO orange fluorescence; percent of sucrose octasulfate shift, DMSO zero. calls only at 9.99 µM. actives 1.5% (n = 340,000). AID 651658;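 active means melting point raised past a set limit in the mean and every replicate; inconclusive means no clear call; three in four hits are not shown here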
Target sequence (Q9HCT0 whole entry, looked up): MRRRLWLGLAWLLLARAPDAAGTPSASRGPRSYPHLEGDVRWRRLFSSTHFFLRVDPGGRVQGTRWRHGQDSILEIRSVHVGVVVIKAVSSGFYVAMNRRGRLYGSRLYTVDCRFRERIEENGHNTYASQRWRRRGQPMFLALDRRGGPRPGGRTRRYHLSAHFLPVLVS
Beta apoptosis: blocks beta cell apoptosis; actives 0.8% (n = 300,000); protection from apoptosis, % (concentration not given with the values); AID 435005; INS-1E cytokine-induced death, ATP luminescence, 48 h; percent of positive-control rescue, neutral wells zero;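 active means all replicates at 75% or more, or half of them and the mean; inconclusive means half reach 75% but not the mean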;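 further: 0% = cytokine-treated negative control wells and 100% = positive control rescue; higher means more ATP so stronger rescue from cytokine killing; wells of about 40 µL received 100 nL stock; the first replicate is given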
rRNA inh HTS OD600: further read-out of rRNA inh HTS, marked with its call; OD600 change, %; measured here: OD600 growth;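 optical density of the mix in the first replicate; 0 = DMSO median and -100 = no signal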
rRNA inh HTS RFP: recorded beside rRNA inh HTS, whose call it bears; RFP signal change, %; measured here: RFP humanized mutant strains;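 first replicate; 0 = DMSO median and -100 = no signal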
Active calls of the source: *; i = inactive; ? = inconclusive; . = not tested or not shown; & = joins results of further samples. These rows are one share of the data. The share of hits here may be higher or lower than overall.

SMILES | RanGTP-Impb inh | rRNA inh HTS | rRNA inh HTS OD600 | rRNA inh HTS RFP | Calb FLC | MLL AF4-AF9 inh | T cruzi repl | ALR inh | FGF22 binding | Beta apoptosis
CC(=O)Oc1cccc(N2C(=O)C3C4C=CC(C4)C3C2=O)c1 (stereo not given) | 0.1 | . | . | . | -5 | . | -26 | 1 | . | 0
O=C1c2ccccc2C(=O)c2c1cccc2-n1nnc2ccccc21 | 7.3 | 17 | 8 | -0.2 | 1 | 4.9 | 0 | -3 | i | -8
O=c1c(C/C=C/c2ccccc2)c(O)ccn1Cc1cccc(Cl)c1 | 2.4 | -23 | -22 | -0.8 | -11 | -4.9 | 2 | -6 | i | -8
CCCCNS(=O)(=O)c1ccc(OC)cc1 | 0.2 | . | . | . | 2 | . | 4 | -1 | . | -4
CC(C)(Cc1ccc(O)cc1)NC(=O)CC(=O)N/N=C/c1ccc([N+](=O)[O-])cc1 | 3.2 | -17* | -9.3* | 5.6* | 4 | 0.2 | 0 | 22 | . | .
O=C(Cc1ncc(C(F)(F)F)cc1Cl)NCc1cccnc1 | 4.7 | 16 | 12 | 2.9 | 1 | 0.3 | 7 | -11 | i | -2
Clc1ccc(-c2nc3ccccn3c2CN2CCSCC2)cc1 | -1.7 | -52 | -76 | -12 | -9 | 4.7 | 19 | -9 | i | 9
O=C(c1ccc([N+](=O)[O-])s1)N1CCN(c2cccc(Cl)c2)CC1 | -3.2 | . | . | . | 12 | . | 47 | -23 | . | 92*
COc1ccc(-c2ccc3c(c2)S(=O)(=O)c2cccc(C(=O)NCc4ccccc4Cl)c2C3=O)cc1OC | . | 8 | 8 | 7.3 | . | 3.9 | . | 2 | i | 14
N#C/C(=C\c1ccc(N2CCOCC2)o1)C(=O)NCC1CCCO1 (stereo not given) | 12 | 14 | 10 | 10.0 | 12 | 2.7 | 1 | 86* | i | -4
CS(=O)(=O)N(CC(=O)NCCSCc1ccccc1Cl)c1ccccc1F | 6.7 | -20 | -17 | 6.0 | -2 | 0.3 | -21 | -11 | i | 2
NNC(=O)c1nc(-c2ccccc2)cc(-c2ccccc2)n1 | 4.7 | 4 | 30 | -1.8 | 2 | -1.6 | -9 | -10 | i | -10
O=[N+]([O-])c1ccc(N2CCCC2)cc1NCc1ccccc1 | 1.2 | . | . | . | 29 | . | 21 | -4 | . | 4
c1ccc(-c2nn[nH]n2)cc1 | 3.3 | -7 | 0 | 1.7 | -6 | -1.8 | -15 | -3 | i | 0
CCCC(=O)N/N=C1\CS(=O)(=O)N(C)c2ccsc21 | 5.1 | 5 | 3 | -1.9 | 28 | 0.3 | 4 | . | . | -1
NC(=O)CC(NC(=O)Cc1cccc2ccccc12)c1ccc(N2CCC(N3CCCCC3)CC2)c([N+](=O)[O-])c1 (stereo not given) | 1.0 | 6 | 5 | 0.5 | 5 | . | -13 | -6 | i | -1
Cc1ccnc(Cc2ccccc2)n1 | 4.6 | -1 | 6 | 0.5 | 2 | 0.7 | -14 | -6 | i | 1
CCCCCCS(=O)Cc1ccccc1 (stereo not given) | -0.2 | . | . | . | 3 | . | 16 | 8 | . | -4
O=C(c1cccs1)N1CCN(C(=O)c2ccco2)c2ccccc2C1 | 4.3 | . | . | . | 8 | . | -2 | 2 | . | -11
CCOC(OCC)P(=O)(c1ccccc1)c1ccccc1 | -2.1 | . | . | . | -3 | . | -8 | -1 | . | 2
COc1ccc(C(=O)/C=C/c2ccccc2)c(OC)c1 | -0.7 | 6 | -1 | -5.7 | 13 | 4.0 | -11 | 52 | i | .
Cc1ccc(Cn2nnc3c(=O)n(CC(=O)OCc4ccccc4)cnc32)cc1 | 5.7 | -1 | -4 | -3.2 | -2 | 5.1 | -13 | -4 | i | -3
Cc1cccc(C)c1NC(=O)C(c1ccccc1)N1CCN(C(=O)c2ccco2)CC1 (stereo not given) | -4.2 | . | . | . | 29 | . | -8 | -2 | . | 2
CN1CCN(c2nc(Nc3ccccc3)nc(N)c2[N+](=O)[O-])CC1 | 1.3 | 4 | 4 | -0.1 | 1 | 6.5 | 1 | -15 | i | -20
CC(C)NC(=O)CN1C(=O)C(=O)c2ccccc21 | 5.1 | . | . | . | -74 | . | -16 | -31 | . | 0
CC(NC(=O)c1cc(Br)ccc1Br)c1ccccc1 (stereo not given) | -3.5 | 22 | 8 | 1.6 | 22 | -4.6 | -2 | -3 | . | -2
CCc1cccc(CC)c1-n1c(SCC(=O)N2CCc3ccccc3C2)nnc1-c1cccnc1 | ? | . | . | . | -5 | . | 39 | 0 | . | -1
N#CC1=C(N)Oc2c(ccc3cccnc23)C1c1cccnc1 (stereo not given) | 1.1 | . | . | . | 104* | . | 11 | -50 | . | 99*
COCc1cc(=O)[nH]c(/N=C(\N)Nc2ccccc2C)n1 | 2.0 | . | . | . | -11 | . | -27 | -26 | . | 6
CCC(C)[C@H](NC(=O)Nc1cccc(Br)c1)C(=O)OC (stereo not given in full) | ? | . | . | . | -6 | . | -5 | -1 | . | 3
O=C(C1=NN(c2ccccc2)C2C(=O)N(c3ccccc3Cl)C(=O)C12)c1ccccc1 (stereo not given) | -131 | . | . | . | -1 | . | -2 | 2 | . | -3
COc1ccc(NC(=O)Nc2ccc3c(c2)C(=O)N([C@H](C)CO)C[C@H](C)[C@@H](CN(C)C(=O)NC2CCCCC2)O3)cc1 | . | -1&16 | -1&4 | -3.5&2.2 | . | -1.0&0.2 | . | -12 | i | 0
COc1cc(NS(=O)(=O)c2ccc(F)cc2)c(OC)cc1NC(C)=O | 7.2 | . | . | . | -9 | . | ? | 1 | . | -1
COc1ccc(/C=N/NC(=O)c2ccn[nH]2)cc1CN1CCOCC1 | -1.2 | 5 | 12 | 1.1 | 11 | -2.6 | -6 | -6 | i | 0
CC(C)N(Cc1nc(-c2ccccc2)no1)C(=O)CN1C(=O)c2ccccc2C1=O | 5.6 | . | . | . | -6 | . | 14 | 0 | . | 3
Cc1ccc(-c2ccc(OC(=O)c3ccc(=O)[nH]c3)c(C)c2)cc1 | -1.3 | 10 | 5 | 2.9 | -15 | -0.5 | 2 | -26 | i | -3
CCOC(=O)Cn1nnc(-c2cccc(OC)c2)n1 | -3.1 | . | . | . | 30 | . | -14 | -9 | . | -5
CNC(=O)c1cc(S(=O)(=O)NC2CCCCCC2)ccc1C | 2.9 | -2 | 8 | -3.1 | 4 | 1.8 | -6 | . | i | .
C=CCOc1ccccc1/C=C/C(=O)O | 1.6 | . | . | . | 18 | . | -9 | -5 | . | -9
COc1ccccc1N1CCN(CCN(C(=O)C2CCCCC2)c2ccccn2)CC1 | -1.4 | 8&7 | 8&6 | 3.5&6.1 | -21 | ? | -8 | 97* | i | -4
O=C(COc1ccc(S(=O)(=O)NC2CCCCC2)cc1)N1CCN(c2ccc(F)cc2)CC1 | . | -7 | -43 | 0.5 | . | 5.0 | . | -3 | i | 12
COc1ccc(C)cc1CN1C(=O)c2ccccc2C1=O | -6.3 | -4 | -11 | 4.2 | -14 | 0.5 | -1 | -8 | i | -1
CCOc1ccc(S(=O)(=O)Nc2cc(NS(=O)(=O)c3ccc(OCC)cc3)cc(C(=O)O)c2)cc1 | . | -1 | 0 | 0.1 | . | -5.8 | . | 5 | i | 0
COc1ccc(NC(=O)CN(C)CC(=O)Nc2cccc(C(C)=O)c2)cc1 | 0.1 | 5 | 8 | -1.0 | -2 | -1.6 | 3 | . | i | -1
CC(C)(C)c1csc(NC(=O)c2ccc(Br)o2)n1 | 4.5 | -17 | -49 | -4.1 | -8 | 5.6 | 5 | 10 | i | 11
COc1cccc(N2CCN(Cc3nc(N)nc(Nc4ccccc4)n3)CC2)c1 | 2.3 | . | . | . | 51 | . | -8 | 97* | . | -5
Cc1cccc(NS(=O)(=O)c2ccc(-c3cnc(C4CC4)o3)cc2)c1C | 4.5 | -22 | -64 | 7.7 | -3 | 5.2 | 27 | -23 | i | .
COC(=O)Cn1ncn2c(cc3oc(C)cc32)c1=O | 0.3 | . | . | . | -2 | . | -13 | 2 | . | 0
Cc1cc(C)n(-c2ccc(NC(=O)C3CCCCN3C(=O)c3occc3C)cc2)n1 (stereo not given) | 0.5 | -1 | -17 | 6.3 | -30 | -4.0 | -5 | 0 | . | -5
Cc1cc(C)n2cc(CSCc3ccco3)nc2n1 | 7.2 | . | . | . | 2 | . | -14 | . | . | -9
O=C(O)COc1ccccc1/C=N/NC(=O)CN1CCN(Cc2ccccc2Cl)CC1 | 3.0 | 9 | 7 | -2.5 | -2 | 9.6 | -9 | -7 | i | 1
O=C(NCCO)c1ccc2nc(-c3ccco3)c(-c3ccco3)nc2c1 | 3.2 | . | . | . | 12 | . | -1 | -24 | . | -1
Cc1ccc(S(=O)(=O)c2nc(-c3ccccc3Br)oc2N(C)C)cc1 | 0.7 | 6 | 11 | 0.0 | 6 | -2.3 | -1 | . | i | -7
CCOc1ccc(OCc2ccc(C(=O)N3CCCC3)o2)cc1 | 8.4 | -17* | -6.7* | 4.2* | -16 | 4.8 | 2 | -1 | i | -7
CC1CCCCC1NC(=O)/C(C#N)=C/c1ccc(OCC(N)=O)cc1 (stereo not given) | -1.1 | . | . | . | -16 | . | 9 | 7 | . | -11
COC(=O)c1ccc(/C=C/C(=O)OCC(=O)Nc2cc(C)on2)cc1 | . | 11 | 16 | 0.9 | . | 6.5 | . | 2 | i | -4
Cc1nn(-c2ncc(C(F)(F)F)cc2Cl)c(=O)n1-c1c(F)cccc1F | -0.2 | 1 | 0 | -1.1 | -18 | 2.0 | -2 | -1 | i | 2
CCC(=O)Nc1ccc2nc(SCC(=O)N3CCCC3)sc2c1 | -0.3 | 1 | 6 | 1.0 | -10 | -16 | 0 | -11 | i | -1
COc1ccc(-c2cccc(NS(=O)(=O)c3ccccc3[N+](=O)[O-])c2)nn1 | -2.2 | -10 | -13 | 4.7 | 25 | -12 | 5 | -11 | i | .
CCNc1nc(NC(C)C)nc(OCCOC(=O)Nc2ccccc2)n1 | -0.1 | -10 | -8 | 0.4 | 21 | 3.9 | 8 | . | i | -2
CC(=O)NCCCC(=O)NC(CCC(=O)OCc1ccccc1)C(=O)OCc1ccccc1 (stereo not given) | 1.3 | -5 | -6 | -0.3 | -13 | 0.5 | -13 | 3 | i | -3
COc1cc(/C=C2\NC(=S)NC2=O)ccc1OCc1cccc(C(=O)O)c1 | -3.3 | -3 | 4 | 0.2 | -1 | 0.7 | -7 | -2 | i | -7
CC(=O)Nc1cc(NC(C)=O)cc(C(=O)OCC(=O)c2ccc3c(c2)OCO3)c1 | 1.9 | -1 | 5 | -0.5 | -4 | 6.3 | -9 | -7 | i | .
